Bioassay records (PubChem BioAssay)
Rango dissoc inh – prevents RanGTP from dissociating the Rango-importin beta complex; O95149+P62826; Biochemical FRET Rango-importin beta, RanGTP-induced dissociation; Potency, µM (series often up to 46.1 µM), inactives show top-dose activity change, negative = inhibition; actives 0.071% (n = 340,000); AID 540253; active means falling FRET ratio curve, often poorly fitted, with flat reads before Ran was added; inconclusive means other falling curves, or compound fluorescence or quenching; inactive means flat or rising ratio curve;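 also: potency is read from the fitted curve at half-maximal effect; % of control where 0% means no effect; nearly all actives have a fitted effect of over 45% in size; -100% = wells without RanGTP and RCC1; the record marks most hits as doubtful in a second field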
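FRET read at 45 min, room temperature: inhibitors block the CFP/YFP signal rise when RanGTP (0.6 uM Ran, 2 mM GTP, 0.2 uM RCC1) frees Rango (0.1 uM) from importin beta (0.25 uM). Pre-read after 5 min compound exposure flags interference.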
GLA inh pH 4.5 – alpha-galactosidase A (human) inhibition, pH 4.5; P06280; purified enzyme, 4-MU-alpha-Gal fluorescence, pH 4.5; activity change, negative = inhibition, % at 105 µM; 230,000 tested, under 10 active; AID 1467; inconclusive = small, poorly fitted or top-dose-only inhibition, or a rising curve; inactive = flat fitted curve, though single readings scatter; no compound was filed as active;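 also: 0% = full activity with enzyme and -100% = basal without enzyme; dose as in the result columns while the protocol names 77 µM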
Rango-impB inh – inhibitors of Rango-importin beta complex formation. Q14974. Rango CFP/YFP FRET sensor + importin beta, 45 min. Potency, µM (top dose mostly 92.2 µM), inactives show at the highest dose inhibition of complex formation. actives 0.031% (n = 340,000). AID 540263; active = rising FRET ratio curve, often small or poorly fitted; inconclusive = mostly compound fluorescence or quenching in the first reads; inactive = flat curves in all reads;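 also: potency is read from the fitted curve at half-maximal effect; 0% = DMSO wells and 100% = buffer wells lacking importin beta; nearly all actives have a fitted effect of over 15% in size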
Target sequence (Q14974 whole entry, looked up): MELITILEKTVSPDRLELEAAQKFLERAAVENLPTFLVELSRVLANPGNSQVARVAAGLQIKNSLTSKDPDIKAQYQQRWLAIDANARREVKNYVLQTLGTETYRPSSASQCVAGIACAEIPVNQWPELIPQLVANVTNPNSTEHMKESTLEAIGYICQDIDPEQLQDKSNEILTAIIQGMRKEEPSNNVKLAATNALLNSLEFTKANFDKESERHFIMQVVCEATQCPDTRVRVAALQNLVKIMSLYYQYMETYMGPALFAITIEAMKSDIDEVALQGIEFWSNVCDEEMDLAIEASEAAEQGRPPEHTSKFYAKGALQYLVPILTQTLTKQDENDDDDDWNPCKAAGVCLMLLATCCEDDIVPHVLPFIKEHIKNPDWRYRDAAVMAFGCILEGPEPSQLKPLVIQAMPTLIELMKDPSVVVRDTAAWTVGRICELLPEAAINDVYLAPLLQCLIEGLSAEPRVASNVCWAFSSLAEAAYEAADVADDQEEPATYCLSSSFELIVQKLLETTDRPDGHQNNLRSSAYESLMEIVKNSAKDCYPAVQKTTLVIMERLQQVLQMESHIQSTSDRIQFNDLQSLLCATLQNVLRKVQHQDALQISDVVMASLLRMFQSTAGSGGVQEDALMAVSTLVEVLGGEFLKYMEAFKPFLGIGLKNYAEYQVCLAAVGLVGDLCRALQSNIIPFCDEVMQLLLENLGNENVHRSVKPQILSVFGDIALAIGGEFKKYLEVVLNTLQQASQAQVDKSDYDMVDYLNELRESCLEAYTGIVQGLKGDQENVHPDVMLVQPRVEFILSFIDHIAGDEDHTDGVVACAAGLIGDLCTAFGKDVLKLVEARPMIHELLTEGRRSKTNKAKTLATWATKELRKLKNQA
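Inhibition scored from the CFP 486 nm/YFP 530 nm FRET ratio 45 min after adding 0.125 microM importin beta to 50 nM Rango biosensor preincubated 5 min with compound (room temperature, PBS with DTT, Tween-20, BSA). No-importin wells as positive control.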
miR-21 reporter – miR-21 reporter, rising signal. HeLa miR-21 FLuc reporter, luciferase, 48 h. Potency, µM (top dose mostly 38.3 µM), inactives show top-dose reporter change, positive = more light. 340,000 tested, under 10 active; active = well fitted rising curve with a large enough effect; inconclusive = small, poorly fitted or top-dose-only effect; inactive = no such curve, though single readings can be large or run the other way;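 also: % of control where 0% means no effect; miR-21 action dims this reporter so a rising signal means less miR-21 action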
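HeLa cells endogenously expressing miR-21, stably carrying CMV-driven firefly luciferase with a downstream miR-21 binding site, 2000 cells/well. Titrations up to approximately 40 uM, 48 hours; luciferase luminescence read.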
The depositor's hits bear a star; ? = inconclusive; nt = no result given; & = joins results of further samples. The list is partial; the hit share may differ from the screen's.

SMILES	Rango dissoc inh	GLA inh pH 4.5	Rango-impB inh	miR-21 reporter
Cc1nnc(C)c2c(C)n(-c3ccccc3N)c(C)c12	-6.0%	5.9	-1.1%	-11.8%
CCOC(=O)Cn1c(=O)c2c(nc3n2CC(C)CN3Cc2ccccc2)n(C)c1=O (stereo not given)	45.0%	nt	-2.8%	9.6%
O=C(Nc1ccc(-c2cscn2)cc1)C1CCCN(Cc2ccc(CO)o2)C1 (stereo not given)	11.5%	nt	4.0%	-2.9%
CCOC(=O)c1nc(C)n(-c2cc(Cl)cc(Cl)c2)n1	3.3%	-12.2	1.0%	-5.0%
O=C(NCC(=O)N1CCN(c2cccc(Cl)c2)CC1)c1ccc(Br)o1	7.0%	nt	-1.2%	nt
Cc1cc(NC(=O)Cn2ccc([N+](=O)[O-])n2)no1	1.6%	5.9	-1.4%	0.1%
Cc1ccc(-n2c(SCC(=O)NCCN3C(=O)CSC3=O)nnc2-c2ccccc2)cc1C	-5.6%	5.7	2.1%	-3.9%
NS(=O)(=O)c1ccc(CNC(=O)c2cc(=O)[nH]c3ccccc23)cc1	4.4%	nt	4.0%	0.0%
CCc1nnc(N/N=C/c2cc(C)c(C)cc2C)n1N	6.9%	nt	4.1%	-0.7%
COC(=O)c1ccc(CSc2nc3cc(Cl)ccc3o2)cc1	-0.4%	-4.4	0.9%	4.9%
Cn1c(=O)c2c(nc(NCC3CCCC(CN)C3)n2Cc2ccc(Cl)cc2Cl)n(C)c1=O (stereo not given)	19.2%	nt	-0.5%	6.9%
CC(=O)NS(=O)(=O)c1ccc(NC(=O)c2ccc(-n3nc(C)cc3C)cc2)cc1	1.2%	-6.4	-2.9%	-0.1%
CCOC(=O)N1CCN(C(=O)Nc2ccccc2Cl)CC1	-5.0%	3.6	3.6%	-3.3%
COc1ccc(C(=O)NC(=S)NNC(=O)c2cccnc2)cc1	0.0%	nt	-2.2%	-4.4%
Cc1cc(C)c(C(=O)NC2CCCc3c2cnn3-c2cccc(C)c2C)o1 (stereo not given)	1.6%	nt	-0.6%	10.6%
CC1CCCN(CCCNC(=O)c2ccc3c(c2)N(Cc2ccc(F)cc2)C(=O)c2ccccc2S3=O)C1 (stereo not given)	18.0%	nt	2.0%	-0.4%
CCc1ccc(CN(C(=O)c2cc3ccccc3oc2=O)C2CCS(=O)(=O)C2)cc1 (stereo not given)	2.9%	1.9	5.8%	-54.6%&-54.6%
Cc1ccc(/C=C/C(=O)N2CCC(Cc3ccccc3)CC2)cc1	1.3%	-0.3	-0.7%	-9.7%
CCCCNC(=S)N1CCN(C)CC1	-2.7%	4.9	1.1%	-2.8%
O=C(O)c1cccc(NC(=S)N/N=C/c2cccc(O)c2)c1	-9.4%	-2.1	-3.9%	-12.3%
COc1ccc(CCC(=O)Nc2cc3c4c(c2)CCC(=O)N4CCC3)cc1	26.8%	nt	5.3%	nt
CCOC(=O)CC1=C(C#N)C(c2cccnc2)C(C(=O)OCC)=C(N)O1 (stereo not given)	-13.5%	-7.0	?	-1.3%
CN(C)Cc1ccc(O)c(CCc2ccccc2)n1	8.9%	-10.2	-5.5%	-8.6%
COc1ccc(-n2c(SCC(=O)N(C)C3CCS(=O)(=O)C3)nc3ccc(O)cc3c2=O)cc1OC (stereo not given)	49.1%	nt	0.1%	nt
O=C(/C=C/c1ccc(Cl)cc1Cl)n1cccn1	7.2%	0.6	0.2%	-4.4%
CCOC(=O)CSc1c(-c2ccc(Cl)cc2)[nH]c2ccccc12	-10.8%	-7.2	?	-1.6%
O=C(O)c1ccccc1C(=O)Nc1cccc([N+](=O)[O-])c1	?	-3.0	-0.3%	-0.4%
Cc1cc(N2CCN(c3cccc(C)c3C)CC2)nc(-c2ccccc2)n1	-11.8%	-2.4	1.5%	-9.4%
O=C(N/N=C/c1ccc(Cl)cc1Cl)c1ccc(-n2cnnn2)cc1	6.2%	nt	0.1%	nt
CC(=O)c1cccc(Nc2nc(N3CCOCC3)nc(N3CCOCC3)n2)c1	0.0%	nt	0.0%	-9.5%

Continued (2 carried over from the part before).
SMILES	Rango dissoc inh	GLA inh pH 4.5	Rango-impB inh	miR-21 reporter
O=C(N/N=C/c1ccc(Cl)cc1Cl)c1ccc(-n2cnnn2)cc1	6.2%	nt	0.1%	nt
CC(=O)c1cccc(Nc2nc(N3CCOCC3)nc(N3CCOCC3)n2)c1	0.0%	nt	0.0%	-9.5%
CCCN(CCC)CCNC(=O)CS(=O)Cc1nc(-c2ccc(C)cc2)oc1C (stereo not given)	5.8%	10.9	0.9%	-3.6%
CC(=O)Nc1ccc(NC(=O)CCc2ccc(C)o2)cc1	-3.7%	nt	2.8%	3.8%
c1ccc(CSc2ccc(-c3ccc4c(c3)OCO4)nn2)cc1	0.8%	7.5	-3.4%	-42.0%
COc1ccc(OC)c(-c2cc(-c3cccnc3)nc(N)c2C#N)c1	19.2%	-9.3	?	13.6%
CCCNC(=O)N1CCC(C(=O)c2cccc(F)c2)CC1	7.5%	3.7	0.1%	-1.6%
C=CCN=C(NC#N)SC	5.4%	-3.9	2.5%	-1.1%
CC1CCCN(C(=O)Cc2cn(Cc3cccc(Cl)c3)c3ccccc23)C1 (stereo not given)	1.5%	-12.0	-2.8%	2.4%
CCCC(=O)C1=C(O)C(C(=O)OC)C(C)(C)CC1=Nc1ccc(C)cc1 (stereo not given)	7.4%	-10.0	0.4%	2.7%
CCOCC(=O)N1CCc2ccccc21	-0.2%	0.4	3.1%	-1.1%
O=C(CCC1CCCN(c2ncccn2)C1)N1CCN(c2ccccn2)CC1 (stereo not given)	1.0%	1.0	-1.6%	4.7%
CC(C)(C)NC(=O)c1ccc2c(c1)N(CC(=O)N1CCCCC1)C(=O)C(C)(C)O2	-1.4%	nt	0.7%	0.7%
Cc1ccc(OC(=O)COc2ccccc2C)cc1	8.9%	nt	-0.3%	-1.4%
COc1cccc(-c2nc(CS(=O)CC(=O)NC(C)CCc3ccccc3)c(C)o2)c1 (stereo not given)	-8.3%	nt	0.5%	0.6%
COC(=O)c1c(NC(=O)CCc2ccc(C)o2)sc(C)c1C	9.3%	-10.4	?	-0.7%
CC[C@@H](C)[C@@H]1CN([C@@H](C)CN2CCC[C@H]2CN2C(N)=NC[C@@H]2Cc2ccccc2)C(=N)N1CCc1ccc(Cl)c(Cl)c1	10.8%	nt	?	nt
CC12CCC(=O)N1C(C(=O)Nc1nccs1)CS2 (stereo not given)	0.4%	nt	-1.2%	nt
CCOCCCn1c(SCC(=O)N(C)C2CCS(=O)(=O)C2)nc2ccccc2c1=O (stereo not given)	0.3%	nt	1.0%	nt
COC(=O)c1ccccc1NC(=O)C1CC(=O)N(c2ccc(OC)cc2)C1 (stereo not given)	-3.2%	5.2	0.7%	14.6%
S=C(NC1CC1)N1CCN(C(=S)NC2CC2)CC1	-10.8%	nt	-3.3%	-18.4%
Cc1ccc(SCC(=O)N2CCN(S(=O)(=O)c3cccs3)CC2)cc1	7.0%	nt	-0.6%	nt
COc1ccc(NC(=O)c2c(C)nn(Cc3ccccc3)c2Cl)cc1S(=O)(=O)N1CCOCC1	2.2%	1.9	2.6%	12.3%
COc1ccc(N2C(=O)CCC2(C#N)c2ccc(OC)cc2)cc1 (stereo not given)	-6.2%	3.1	-3.3%	-3.5%
O=C(COC(=O)c1ccco1)Nc1ccc2c(c1)OCO2	-1.0%	-15.3	-1.0%	-11.1%
CC(=O)Nc1ccc(Oc2ncccn2)c(Cl)c1	7.7%	3.7	-0.2%	0.1%
Cc1ccc(C(=O)CN(Cc2ccccc2)C2=NCCS2)cc1	-6.7%	1.1	0.4%	-11.0%
Cc1cc(N/N=C/c2ccccc2Br)nc2ccccc12	-5.7%	-3.1	0.3%	-66.6%
O=C(Nc1ccc2ccccc2c1[N+](=O)[O-])c1ccccc1	11.0%	nt	3.5%	nt
Cc1cc(C)n2nc(CCc3nc4nc(C)cc(C)n4n3)nc2n1	nt	3.8	nt	-1.4%
CCC1CCCCN1C(=O)Cn1c(=O)oc2ccccc21 (stereo not given)	-13.0%	-7.9	7.2%	-1.7%
CCOC(=O)N1CCC(NC(=O)Cn2ncc3c4ccccc4n(C)c3c2=O)CC1	-10.6%	7.6	-1.0%	-48.7%
COc1ccc(/C=N/NC(=S)NC2CCS(=O)(=O)C2)cc1OC (stereo not given)	-1.1%	1.3	4.0%	0.2%
O=C1CCCN2N=C(SCC(=O)Nc3ccc(F)cc3F)SC2=N1	7.8%	nt	-4.9%	-6.8%
O=C(CN1C(=O)NC2(CCCCC2)C1=O)N1CCN(S(=O)(=O)c2ccccc2)CC1	-12.8%	1.9	-0.4%	-3.3%
CN(Cc1cccc(F)c1)C(=O)CSc1nnnn1C1CC1	-15.0%	nt	5.5%	nt
CCC1(C)Cc2c(sc3nnn(CC(=O)Nc4ccc(C)cc4)c(=O)c23)CO1 (stereo not given)	6.6%	-0.2	1.1%	0.9%
Cc1cccc(NS(=O)(=O)c2nnc(NC(=O)c3cccc(C)c3)s2)c1	17.7%	nt	3.7%	-27.9%&-36.2%
COc1cccc(CNC(=O)c2ccc(NS(=O)(=O)c3ccc4[nH]c(=O)[nH]c4c3)cc2)c1	22.4%	nt	-5.6%	nt
CC(=O)OC1COC(OC(C)=O)CO1 (stereo not given)	-11.9%	nt	-2.8%	nt
COc1ccc(C(c2nnnn2Cc2ccccc2)N2CCN(C(=O)c3ccco3)CC2)cc1 (stereo not given)	1.4%	-2.4	-4.0%	-12.6%
CCOC(=O)C1=C(c2ccccc2)NC(=O)NC1c1ccc(O)c(OCC)c1 (stereo not given)	-1.7%	12.6	2.3%	1.1%
COc1cc(/C=C(\NC(C)=O)C(=O)NC(C)(C)CC(C)(C)C)ccc1OC(C)=O	3.0%	-24.4	6.4%	-7.1%
c1ccc(OCc2nn3c(Cn4cnc5ccccc54)nnc3s2)cc1	2.4%	6.6	1.0%	0.8%
CCN(CC)CCN1C(=O)C(=O)/C(=C(/O)c2ccc3c(c2)CC(C)O3)C1c1ccc(OC)cc1 (stereo not given)	-18.5%	2.0	-0.6%	-4.0%
COc1cc(/C=N/Nc2nncn2N)ccc1OCc1c(C)no[n+]1[O-]	6.2%	2.8	3.3%	1.8%
Cc1ccc2cn[nH]c2c1N	5.7%	-4.7	?	3.6%

One compound at a time (already shown):
Entry for `c1ccc(OCc2nn3c(Cn4cnc5ccccc54)nnc3s2)cc1` : Rango dissoc inh = 2.4%; GLA inh pH 4.5 = 6.6; Rango-impB inh = 1.0%; miR-21 reporter = 0.8%
Entry for `Cc1cccc(NS(=O)(=O)c2nnc(NC(=O)c3cccc(C)c3)s2)c1` : Rango dissoc inh = 17.7%; GLA inh pH 4.5 = nt; Rango-impB inh = 3.7%; miR-21 reporter = -27.9%&-36.2%
Entry for `COc1ccc(/C=N/NC(=S)NC2CCS(=O)(=O)C2)cc1OC` (stereo not given) : Rango dissoc inh = -1.1%; GLA inh pH 4.5 = 1.3; Rango-impB inh = 4.0%; miR-21 reporter = 0.2%

New compounds follow.
SMILES	Rango dissoc inh	GLA inh pH 4.5	Rango-impB inh	miR-21 reporter
CCc1c(C)nc(N2CCN(Cc3ccc4c(c3)OCO4)CC2)[nH]c1=O	-1.7%	nt	-7.4%	-0.5%
O=C(NCCCN1CCOCC1)c1cccc(S(=O)(=O)Nc2ccc(F)cc2)c1	6.1%	nt	-3.6%	nt
FC(F)(F)c1nnc2ccc(Cl)nn12	1.3%	-15.3	-4.2%	?
CC1CC(C)CN(C(=O)c2cccc(S(=O)(=O)NCc3ccccc3)c2)C1 (stereo not given)	13.0%	nt	0.0%	nt
CCCN1C(=O)C(Cc2nc3ccccc3c(=O)n2-c2ccccc2)c2cc(C)ccc21 (stereo not given)	1.1%	-14.3	0.4%	16.2%&-23.8%
CCCCOc1cccc(C(=O)N(Cc2cccs2)C2CCS(=O)(=O)C2)c1 (stereo not given)	-0.1%	-1.9	-0.1%	5.1%
O=C(NC1CCCCC1)c1cc(C2CC2)nn1-c1ccccc1	2.9%	nt	-0.2%	nt
COc1ccccc1/C=N\Nc1cn[nH]c(=O)c1Cl	40.5%	2.0	2.9%	-11.6%
CCn1c(CNc2ccc(F)cc2)nnc1SCC(=O)OC1CCCCC1	-8.8%	1.7	2.1%	4.8%
O=c1[nH]c(C2C3CC4CC(C3)CC2C4)nc2ccccc12 (stereo not given)	0.2%	-7.8	-0.6%	-1.5%
